Screens from PubChem.
nsP2pro primary: inhibitors of chikungunya virus nsP2 protease. Q8JUX6. FRET peptide cleavage, nsP2pro, fluorescence 1 h. Potency, µM (titrated, usually from 24.9 µM), inactives show top-dose activity change, negative = inhibition, hits mostly inhibitors. 31,000 compounds, 1.1% hits. AID 1964107; active means well fitted inhibition curve with a large enough effect; inconclusive means small, poorly fitted or top-dose-only effect; inactive means no such curve, though single readings can be large or run the other way; also: nearly all actives have a fitted effect of over 60% in size; a reference inhibitor and vehicle were the controls
* hit, by the source's call; i = inactive; u = inconclusive; & = joins results of further samples; [ ] = dose if it differs, or a comment. % is scaled to controls: 0 for no effect and ±100 for the full control effect; potency is read from the fitted curve at half-maximal effect.

canonical_smiles | nsP2pro primary
O=C1CCC(C(=O)N2CCOCC2)CN1CCCc1ccccc1 (stereo not drawn) | 2.5%
Cc1ccc(C(=O)N2c3nc(-c4ccco4)nn3C3(CCCCC3)[C@@H]3CCCC[C@@H]32)cc1 | -35.3%
COCCN[C@H]1[C@@H]2OC[C@@H](O2)[C@@H](NCc2cnc3ccccc3c2)[C@@H]1O | i
Cc1ccc(-c2cn3nc(N4CCCC(C(=O)NCc5ccccc5F)C4)sc3n2)cc1 (stereo not drawn) | -12.7%
COCCNC(=O)Cn1c(=O)n(CCCCCC(=O)NCc2ccccc2Cl)c(=O)c2sccc21 | -3.6%
COc1cc2c(C(=O)N3CCN(c4ccc(F)cc4)CC3)cn(CC(C)C)c(=O)c2cc1OC | -16.3%
CCOC(=O)c1c(NC(=O)CCCOc2ccc(C(C)(C)C)cc2)sc2c1CCC2 | -12.0%
Cc1ccc(OCCn2c(CCNC(=O)Cc3ccc(F)cc3F)nc3ccccc32)cc1 | 3.9%
COc1ccccc1N1CCN(C(=O)CC[C@]23CC[C@](C)(O)C[C@H]2C(C)(C)C[C@@H]3NC(=O)c2cccnc2)CC1 | 1.8%
O=C(C1CCC1)N1CCC(Cc2nncn2Cc2ccccc2)CC1 | i

In the list so far, these contain a carbonyl joined to an NH by a bond outside any ring:
canonical_smiles | nsP2pro primary
Cc1ccc(-c2cn3nc(N4CCCC(C(=O)NCc5ccccc5F)C4)sc3n2)cc1 (stereo not drawn) | -12.7%
COCCNC(=O)Cn1c(=O)n(CCCCCC(=O)NCc2ccccc2Cl)c(=O)c2sccc21 | -3.6%
CCOC(=O)c1c(NC(=O)CCCOc2ccc(C(C)(C)C)cc2)sc2c1CCC2 | -12.0%
Cc1ccc(OCCn2c(CCNC(=O)Cc3ccc(F)cc3F)nc3ccccc32)cc1 | 3.9%
COc1ccccc1N1CCN(C(=O)CC[C@]23CC[C@](C)(O)C[C@H]2C(C)(C)C[C@@H]3NC(=O)c2cccnc2)CC1 | 1.8%

Next section:
canonical_smiles | nsP2pro primary
Cc1nc(C2(C)CCN(C(=O)CCc3cc(Cl)no3)CC2)no1 | 3.4%
O=C(Cc1ccc(Cl)c(Cl)c1)Nc1ccc([S+](=O)([O-])Nc2ncn[nH]2)cc1 | 1.1%
O=C(Nc1nc(-c2ccccc2)cs1)c1ccncc1NS(=O)(=O)c1ccc(Cl)cc1 | 2.2%
O=C1CCc2cc(S(=O)(=O)Nc3ccccc3Cl)ccc2N1 | 1.4%
CCOc1ccc(N(C)S(=O)(=O)c2ccc3c(c2)CCCN3C(C)=O)cc1 | -24.3%
C=CCC1=C[C@]2(OC)[C@H](C)[C@@H](c3ccc(O)c(OC)c3)O[C@]2(OC)CC1=O | u
c1nc2nc(Nc3ccc(N4CCOCC4)cc3)nc(NC3CCCCC3)c2[nH]1 | 96.3%[activator][10 µM]
Cc1cc(C)nc(NC(=S)N2CCN(c3ccc(C(F)(F)F)cn3)CC2)c1 | u
O=C(CSc1nc(Nc2ccc(F)cc2)c2ccccc2n1)c1ccc(F)cc1 | u
O=C(Cn1c(=O)oc2ccccc21)NCc1ccc(Cl)cc1 | -4.1%

(next part)
canonical_smiles | nsP2pro primary
COc1cc(-n2c(=O)c3ccccc3n(Cc3cccc(Cl)c3)c2=O)cc(OC)c1OC | -22.5%
CCN(CC)CC1CCN(c2ncc3ncnc(Nc4ccc(F)c(Cl)c4)c3n2)CC1 | 2.1%
O=C(OCC#CCSc1nnc(-c2cccc3ccccc23)o1)c1sc(Cl)c(Cl)c1Cl | -3.8%
C=CCC1=C(C)C(OC(=O)C2C(C=C(C)C)C2(C)C)CC1=O (stereo not drawn) | -20.6%[39.2 µM]
CCC(=O)NC(c1cc(Cl)c2cccnc2c1O)C(C)C (stereo not drawn) | i
COc1ccc(CC2(CO)CCN(c3cc(OC)nc(N)n3)CC2)cc1 | -3.6%
Nc1ncc(S(=O)(=O)N2CCN(c3ccccc3)CC2)cn1 | -10.5%
COc1ccccc1CNC(=O)CCCCn1c(=O)c2ccccc2n(CC(=O)Nc2c(C)cc(C)cc2C)c1=O | -17.1%
Cc1ccnc(NC(=S)N2CCN(c3ncc(C(F)(F)F)cc3Cl)CC2)c1 | -2.5%
CCN(CC)c1nc2c(S(=O)(=O)c3cccc(Cl)c3)nnn2c2ccsc12 | -16.1%

Going on with the list.
canonical_smiles | nsP2pro primary
CCOC(=O)c1ccc(NC2CCCCC2)c(N)c1 | -2.0%
CC(=O)Nc1ccc(OCc2cccc(C3Nc4ccccc4C(=O)N3Cc3ccco3)c2)cc1 (stereo not drawn) | u
C[C@@H]1C[C@H]2OC(=O)[C@@]3(C)CCC[C@](C)(C23)[C@@]1(O)CCC1=CC(=O)OC1O (stereo partly drawn) | 21.2%
Oc1cccc2cc(N3CCNCC3)cnc12 | i
CCCCCC(=O)N1CCC[C@H]1C(=O)N[C@@H](Cc1ccc(O)cc1)C(=O)OC | 20.3%
C[C@@H]1[C@H](O)[C@@H](C)/C=C/C=C\C=C\C=C\C=C\C=C\C=C\[C@H](O[C@@H]2O[C@H](C)[C@@H](O)[C@H](N)[C@@H]2O)C[C@@H]2O[C@](O)(C[C@@H](O)C[C@@H](O)[C@H](O)CC[C@@H](O)C[C@@H](O)CC(=O)O[C@H]1C)C[C@H](O)[C@H]2C(=O)O (stereo in doubt) | -27.8%
Cc1ccc(N2C(=O)N(Cc3cccc(Cl)c3)c3ccccc3S2(=O)=O)cc1 | -11.8%
COc1ccc(OC)c(CCNC(=O)c2ccc3c(c2)N(Cc2ccccc2)CCS3)c1 | -22.3%
COc1ccccc1NC(=O)c1cc(-c2ccc(C)c(C)c2)nc2ccccc12 | -3.8%
Cc1noc(-c2ccc(-c3noc(-c4cccc(F)c4)n3)cc2)n1 | -20.9%

(listing goes on)
canonical_smiles | nsP2pro primary
C[C@H]1CCCC(=O)CCC/C=C/c2cc(O)cc(O)c2C(=O)O1 | 29.0%
COC(=O)c1nnn(CC(=O)Nc2ccc(Br)c(C)c2)c1N | -9.6%
O=C(Nc1ccccc1F)C1CCCN(Cc2cccc(-c3cccs3)c2)C1 (stereo not drawn) | i
COc1ccccc1OC1(C(=O)O)CCN(Cc2nccn2C)CC1 | -9.6%
CCc1noc2nc(C)n(CC(=O)O)c(=O)c12 | -21.6%
Cc1nc(N2CCCC2)ncc1C(=O)NCc1cccc(Cl)c1 | -7.0%
c1cc2c(cc1-c1n[nH]c(C3CCOCC3)n1)OCO2 | -8.1%
O=C1O[C@H](CO)[C@@H](O)[C@H](O)[C@H]1O | -4.7%
O=C1NCCOCCCN(S(=O)(=O)c2ccccc2)[C@H]2CCCC[C@@H]12 | i
Cc1ccc(CNC(=O)C(C)n2ccc3cc(S(=O)(=O)N4CCCC4)ccc32)cc1 (stereo not drawn) | -22.6%

The list goes on:
canonical_smiles | nsP2pro primary
C[C@]12CCC(=O)C=C1CC[C@@H]1[C@@H]2[C@@H](O)C[C@@]2(C)[C@H]1CC[C@]2(O)C(=O)CO | -19.9%&11.9%
CC(C)c1nnc(NC(=O)c2nc(SCc3ccc(F)cc3)ncc2Cl)s1 | 290.8%[activator]
CCc1ccccc1NC(=O)Cn1c(=O)n(CCc2ccccc2)c(=O)c2sc3ccccc3c21 | -15.8%
O=S(=O)(Cc1ccccc1)N1CCCC(Cc2noc(-c3cccnc3)n2)C1 (stereo not drawn) | i
Cc1ccc(C)c(Cn2c3ccccc3c3cnn(CC(=O)NC(C)CCc4ccccc4)c(=O)c32)c1 (stereo not drawn) | -22.9%
O=C(O)c1c[nH]c2c(ccc3ccccc32)c1=O | 19.6%
COCCN1CC2(CCC1=O)CCN(C(=O)[C@@H]1C[C@@H](O)CN1)CC2 | i
Cc1cc(C)c2oc(-c3ccc(NC(=O)COc4ccccc4C)cc3)nc2c1 | -26.1%
c1cnc2c(c1)ncn2C1CCNCC1 | -3.8%
CC(C)(C)c1ccc(C[C@H](C(=O)O)N2C(=O)c3ccc(C(=O)O)cc3C2=O)cc1 | -15.3%

Next structures.
canonical_smiles | nsP2pro primary
O=C1CCc2cc(S(=O)(=O)Nc3ccncc3)ccc2N1 | -3.5%
COc1cccc(OCC(=O)NC2CC(=O)N(c3cccc(OC)c3)C2)c1 (stereo not drawn) | -10.3%
CC(=O)N1CCc2cc(S(=O)(=O)NC(CC(C)C)C(=O)NCCc3cccc(C)c3)ccc21 (stereo not drawn) | -16.2%
O=C1c2ccccc2C(=O)N1c1ccc(O)cc1 | -3.8%
CCN(CCCNC(=O)c1cc2cc3cc(OC)ccc3nc2s1)c1cccc(C)c1 | -10.1%
CCC(CC)c1nn2cc(-c3ccccc3)nc2s1 | -32.1%
COc1cc2c(NC3CCN(C(C)C)CC3)nc(N3CCC(F)(F)CC3)nc2cc1OCCCN1CCCC1 | 102.5%[activator]
Cc1noc(C)c1-c1ccc2ncnc(NCc3cccc(-c4ccccc4)c3)c2c1 | -8.4%
COc1ccc(NC(=O)C(OC(=O)CNC(=O)c2ccccc2)c2ccccc2)cc1F (stereo not drawn) | -4.7%
CCN(CC)C(=O)C1CCN(c2nnc(C)c3c(C)n(-c4ccc(Cl)cc4)nc23)CC1 | -21.9%

The list continues:
canonical_smiles | nsP2pro primary
CCOC(=O)C1CCN(C(=O)c2nn(-c3ccc(OC)c(Cl)c3)c(=O)c3c2c2ccccc2n3C)CC1 | -10.6%
COC1CC(OC2CCC3(C)C(=CCC4C3CCC3(C)C(C(C)O)CCC43O)C2)OC(C)C1OC1OC(C)C(OC2OC(COC3OC(COC4OC(CO)C(O)C(O)C4O)C(O)C(O)C3O)C(O)C(O)C2O)C(OC)C1O (stereo not drawn) | -7.2%[5.1 µM]
Nc1ccc(S(=O)(=O)N2CCN(S(=O)(=O)c3ccc4c(c3)OCCO4)CC2)cc1 | i
CCN(CC)C(=O)CSc1nc2cc3c(cc2c(=O)n1CCCCCC(=O)NCCc1ccc(OC)c(OC)c1)OCO3 | -13.4%
CCCCCCCC(=O)CC[C@@H]1[C@@H](C/C=C\CCCC(=O)OC(C)C)[C@@H](O)C[C@H]1O | -10.2%
Cc1nn2c(c1-c1ccccc1C(C)C)N([S+](=O)([O-])c1ccc(C(C)C)cc1)CCC2 | i
N#Cc1cccc(C(=O)N2CCCOCCNC(=O)CC2)c1 | -9.9%
CCC(=O)NC(c1ccco1)c1cc(Cl)c2cccnc2c1O (stereo not drawn) | -17.3%
CCN(C(=O)c1cc2c(s1)-c1c(C)cccc1OC2)c1cc(C)ccc1C | -20.9%
COC[C@H]1C[C@@H](NCc2cn(C)c3ccccc23)[C@H](O)[C@@H]1O | u

Further entries follow:
canonical_smiles | nsP2pro primary
O=C1CCCC2=C1C1(CCOCC1)N=C(Nc1nc3ccccc3o1)N2 | i
COC1CCCC/C(C)=C/C2C=C(C)C(C)C3C(CC(C)C)NC(=O)C23C(=O)C1 (stereo not drawn) | -15.8%[10 µM]
CN1C[C@@H](NC(=O)NC2CCCCC2)C[C@H]1c1nc(-c2ccccn2)no1 | u
CCOC(=O)C1CCN(C(=O)C(C)(C)NC(=O)Nc2ccc([N+](=O)[O-])cc2)CC1 | -8.9%
C=C(C(=O)OC)C1CCC2(C)C(O[C@@H]3O[C@H](CO)[C@@H](O)[C@H](O)[C@H]3O)CC(=O)C(C)C2C1O (stereo partly drawn) | u
CSc1cccc(NC(=O)c2cccc(N3CCCS3(=O)=O)c2)c1 | -14.0%
c1nc(NC[C@@H]2CCCO2)c2cc(-c3ccc4c(c3)OCO4)ccc2n1 | i
CN(C)C1CCN(Cc2cc(COCc3ccccc3)c3cccnc3c2O)C1 (stereo not drawn) | i
Cc1ccccc1Nc1cc(C(=O)NCCCN2CCN(c3cccc(Cl)c3)CC2)c2ccccc2n1 | -9.0%
CCN(CC)c1ccc(NC(=O)Cn2nc(C)n3cccc3c2=O)c(C)c1 | -22.7%

(listing goes on)
canonical_smiles | nsP2pro primary
Cc1ccc(CN2CCSc3ccc(C(=O)N4CCN(c5ccccc5)CC4)cc32)cc1 | -20.7%
COc1ccc(N2CCN(C(=O)C(CC(C)C)NS(=O)(=O)c3ccc4nc(C)sc4c3)CC2)cc1 (stereo not drawn) | -13.0%
COc1ccc(-c2nc3c(c(SCC(=O)N(C)c4ccccc4)n2)Cc2cc(C)ccc2O3)cc1 | -6.8%
CN(C)CCc1c[nH]c2ccc(CN3CCN(C)S3(=O)=O)cc12 | u
O=C(N[C@H]1CO[C@H]2[C@@H]1OC[C@@H]2Nc1nccc(-c2cccc(F)c2)n1)c1cccs1 | -10.3%[39.2 µM]
COc1cc(-c2nc(Cn3nnc(C(=O)Nc4ccc(C)cc4C)c3C)c(C)o2)cc(OC)c1OC | -15.7%
CCC(=O)Nc1ccc(-c2nnc3c4ccccc4c(C)nn23)cc1 | -2.0%
O=C1NCCCCCCN(C(=O)c2cc(C3CC3)[nH]n2)[C@H]2CCCC[C@@H]12 | 4.6%
CCc1ccc(CNc2ncncc2-c2nc(-c3ccccc3)no2)cc1 | -0.2%
CN1CCN(CCCN2c3ccccc3Sc3ccc(C(F)(F)F)cc32)CC1 | 24.2%&50.1%

A draw from above in order of SMILES length, descending.
canonical_smiles | nsP2pro primary
CCc1ccccc1NC(=O)Cn1c(=O)n(CCc2ccccc2)c(=O)c2sc3ccccc3c21 | -15.8%
CCOC(=O)c1c(NC(=O)CCCOc2ccc(C(C)(C)C)cc2)sc2c1CCC2 | -12.0%
CCN(C(=O)c1cc2c(s1)-c1c(C)cccc1OC2)c1cc(C)ccc1C | -20.9%

The results go on:
canonical_smiles | nsP2pro primary
O=C(CCC1CCCN(Cc2cccn2-c2ccccn2)C1)Nc1ccccc1F (stereo not drawn) | 4.9%
CC(C)Oc1ccc(CNC(=O)CCCN2C(=O)CCn3nc(-c4cccn4C)cc32)cc1 | u
CC(=O)NC1(C)CCN(Cc2ccccc2-c2ccccc2Oc2ccccc2)C1 (stereo not drawn) | u
CN(C(=O)c1ccc2oc(Cc3ccc(Cl)cc3)nc2c1)[C@H]1COC[C@@H]1O | 3.5%
CCOc1cc(C(=O)Nc2ccc(Cl)c(-c3nc4ccccc4[nH]3)c2)cc(OCC)c1OCC | 1.4%
CC(NC(=O)c1ccc(NC(=O)c2nsc3ccccc23)cc1)c1ccccc1 (stereo not drawn) | -18.3%

These rows are one share of the data, so the mix of outcomes need not match the whole.
